From PubChem BioAssay
Anaer choline gr: inhibitors of anaerobic choline-dependent gram-negative bacterial growth; Gram-negative bacterium anaerobic choline minimal medium, absorbance growth; hits give low values; many inactives read as strong as hits in the columns shown; calls only; 55,000 tested, 0.2% active; AID 1963822;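 active = growth z-score on choline under -2 at 7 or 20 h with little or no fall on glycerol, limits in tiers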;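 also: stock transfer was 300 nL into about 50 µL; the organism is E. coli; final concentration not given here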
Anaer choline gr early: also measured in Anaer choline gr; calls as there; z-score; measured here: choline growth z-score, timepoint 1;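 score of optical density at 7 h as mean of two plates; lower means less growth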
Numbers without * were called inactive; i = inactive; & = joins results of further samples. The list is partial; the hit share may differ from the screen's.

SMILES	Anaer choline gr	Anaer choline gr early
O=S1(=O)c2ccccc2NC(c2ccccc2Cl)N1Cc1cccc(Br)c1 (stereo unspecified)	i	1.24
CCCn1nnc2cc(-c3noc(/C=C/c4ccc(OC)c(OC)c4)n3)ccc21	i	1.97
COc1ccc(-c2ccc(CNC3CC3)o2)cc1Cl	i	-0.38
Cn1c(N2CCC(C(=O)Nc3ccc(F)c(Cl)c3)CC2)cc(=O)n(C)c1=O	i	-0.09
CCCn1c(=O)c2ccc(C(=O)NC(C)C)cc2n2c(=O)n(Cc3ccccc3Cl)nc12	i	1.14
CN(C)Cc1ccc(S(=O)(=O)n2ccc(C=CC(=O)NO)c2)cc1	i	0.26
CC(=O)Nc1ccc(NC(=O)CSc2nnc(C(C)N3C(=O)COc4ccccc43)n2C)cc1 (stereo unspecified)	i	0.39
CCOc1ccc(-c2[nH]nc3nc(-c4ccc(OC)cc4)cc(C(=O)O)c23)cc1	i	0.19
CCSc1nn(CC(=O)Nc2ccc(OC)c(Cl)c2)c(N)c1S(=O)(=O)c1ccc(C)cc1	i	1.57
COCCCCCCCCCCCC(=O)O	i	0.56
CCCCSc1nc2c(c(=O)[nH]1)C(c1sccc1C)C(C(=O)OCC)=C(C)N2 (stereo unspecified)	i	-0.45
Cn1c(=O)c2c(nc(CN3CCC(Cc4ccccc4)CC3)n2Cc2ccc(F)cc2)n(C)c1=O	i	-2.7
Cc1ccc(-n2cc(C(=O)O)c3ccccc3c2=O)cc1	i	0.91
CCC(=O)Nc1cccc(-c2noc(C3CCCN(C(=O)c4ccc(NC(C)=O)cc4)C3)n2)c1 (stereo unspecified)	i	1.29
COc1ccc(CNC(=O)c2nc(-c3ccc(S(=O)(=O)N4CCOCC4)cc3)no2)cc1	i	1.18
CCCSc1nnc2c(n1)OC(c1ccccc1)Nc1ccccc1-2 (stereo unspecified)	i	-0.16
O=C(Nc1noc2ccccc12)c1ccccc1Br	i	-0.66
Cn1c(=O)n(CCC(=O)N2CCCC2)c(=O)c2cc(S(=O)(=O)Nc3cccc(Cl)c3)ccc21	i	0.4
Cc1nc(-c2cc(S(=O)(=O)Nc3ccc(F)cc3Cl)c(C)s2)sc1C	i	0.05
Cc1ccccc1OCCSc1nnc(-c2ccc3c(c2)OCCCO3)n1C	i	-0.12
O=C1CC(c2nc3ccccc3n2CC(O)COc2ccccc2Cl)CN1c1ccccc1 (stereo unspecified)	i	-0.07
COc1cc(NC(=O)C2CCCN(c3nc4ccccc4nc3C(F)(F)F)C2)cc(OC)c1 (stereo unspecified)	i	0.93
COc1ccc(S(=O)(=O)N2CCC(n3cnc4c(Cl)cccc4c3=O)CC2)cc1OC	i	-0.59
CCOC(=O)c1cc(-c2ccc(OC)c(S(=O)(=O)Nc3ccc(Cl)cc3C)c2)on1	i	0.65
Cc1ccc(-c2cccc3c(C(=O)NCCN4CCOCC4)cc(C)nc23)cc1	i	0.03

Next part.
SMILES	Anaer choline gr	Anaer choline gr early
COCCCNc1ncnc2onc(-c3ccc(Cl)cc3)c12	i	0.05
CCCCC(=O)Nc1ccc(Nc2cc(N(C)C)nc(C)n2)cc1	i	-0.27
O=C(COc1ccc(Cl)cc1)Nc1nc(-c2ccccc2)ns1	i	-0.46
Cc1cccc(NC(=O)Cc2noc3ccccc23)n1	i	-0.57
CCc1ccc(/C=C2/SC(=S)NC2=O)cc1	i	0.99
COc1ccccc1OCCn1c(CO)nc2ccccc21	i	1.56
Cc1cc2c(cc1NS(=O)(=O)c1c(C)c(C)cc(C)c1C)n(C)c(=O)n2C	i	1.55
CCCCCN1C(C(=O)c2ccccc2)=C(NC(=O)c2ccc(OC)c(OC)c2)c2ccccc2S1(=O)=O	i	1.01
COc1cc(OC)cc(C(=O)Nc2nc(CC(=O)NCCc3ccc(Cl)cc3)cs2)c1	i	2.61
Cc1cc(N2CCn3c(nc4ccccc43)C2)ccc1NC(=O)NC1CCCCC1	i	-0.97
O=C(NCCC1=CCCCC1)c1cnc2sccn2c1=O	i	1.05
CCCCS(=O)(=O)N1CC(c2nc(C)no2)C2(CCOCC2)C1 (stereo unspecified)	i	0.56
CCOC(=O)CC1=CC(SCc2cccc(C)c2)=Nc2ccccc2N1	i	2.21
CC(=O)Nc1c2n(c3ccc(F)cc13)CC(C)(C(=O)NC1CCCC1)N(CCC1=CCCCC1)C2=O (stereo unspecified)	i	0.28
Cc1nc(-c2ccc(Cl)c(S(=O)(=O)N3CCCC(C(=O)N4CCN(c5ccccc5)CC4)C3)c2)no1 (stereo unspecified)	i	0.91
COc1cccc(NC(=O)C2CCCN(S(=O)(=O)c3cc4c(cc3C)NC(=O)CO4)C2)c1 (stereo unspecified)	i	0.37
Cc1cc(C)cc(Nc2cc(C(=O)O)nc3ccc(C)cc23)c1	i	1.2
Cc1noc(C)c1S(=O)(=O)N1CCCC1c1cccs1 (stereo unspecified)	i	-0.14
CCN(CC)CCCNC(=O)Cn1nc(N2CCN(c3ccccc3OC)CC2)ccc1=O	i	-0.84
CN(C)CCNc1ncnc2c1c(-c1ccccc1)cn2-c1ccccc1	i	0.46
Cc1nc2ncnn2c(Sc2ccccc2NC(=O)Cc2ccc(Cl)cc2)c1C	i	0.9
COc1cc(OC)c(C(=O)CCCCN2CCC3(CC2)NC(=O)NC3=O)cc1NS(=O)(=O)c1ccc(C(F)(F)F)cc1	i	0.77
O=C(Cc1ccc(Cl)cc1)N1CCN(c2ccc(Nc3ccccc3)nn2)CC1	i	1.91
CCCn1c(SCc2nc(-c3ccc4c(c3)OCO4)no2)nc2cc3c(cc2c1=O)OCO3	i	0.79
O=C(CN1N=C(c2ccccc2)c2cc(Cl)ccc2S1(=O)=O)NCc1ccc(F)cc1	i	1.16

Carrying on:
SMILES	Anaer choline gr	Anaer choline gr early
COc1ccc(-n2nc(C(=O)Nc3ccc(F)cc3)c3c4ccccc4n(C)c3c2=O)cc1	i	-0.42
COc1ccc(S(=O)(=O)NCCc2csc(-c3ccc(Cl)cc3)n2)cc1OC	i	-0.26
O=C(NCC1CC1)C1CC(=O)N(c2ccc3c(c2)CCN3C(=O)C2CCC2)C1 (stereo unspecified)	i	0.77
COc1ccccc1CNC(=O)c1cncc(NS(=O)(=O)c2ccc(F)cc2)c1	i	0.77
CCc1nn2c(=O)c(S(=O)(=O)NCc3ccc4c(c3)OCO4)c(C)nc2s1	i	1.31
CC(C)Cn1c(=O)c2sccc2n2c(CCC(=O)N3CCN(C4CCCCC4)CC3)nnc12	i	-0.27
Cn1c(NC(=O)c2cc(Br)ccc2Cl)cc(=O)n(C)c1=O	i	0.29
COc1ccc(-c2cc(OC(=O)c3ccccc3F)c3c(C)oc(C)c3c(=O)c2)cc1OC	i	-1.6
Cc1cc(C)c(Nc2ccnc(Nc3ccc(C#N)cc3)n2)c(C)c1	i	0.83
CN1[C@@H](C[C@H](O)c2ccccc2)CCC[C@H]1CC(=O)c1ccccc1	i	0.48
O=C(CCCc1nc(-c2ccccc2)no1)Nc1nccs1	i	-0.29
CNC(=O)N1CCCC(c2cccc(C(=O)NCc3ccccc3Br)c2)C1 (stereo unspecified)	i	-0.17
CCSc1nc2ccc(NS(=O)(=O)c3cccc(Cl)c3)cc2s1	i	1
CCOC(=O)c1c(C)oc2ncnc(NC3CC3)c12	i	0.12
CN1CCc2cc(NC(=O)Nc3cccnc3)ccc21	i	-0.5
Cn1c(=O)c(=O)n(CC(=O)NCc2ccc3c(c2)OCO3)c2cccnc21	i	-0.06
O=C(Nc1ccc(Br)cc1)Nc1ccccc1Sc1ccc2nncn2n1	i	-0.4
Cc1cc(S(=O)(=O)NCc2nc(N)n(S(=O)(=O)c3ccc(F)c(C)c3)n2)ccc1F	i	1.29
CCc1noc2nc(C)nc(Nc3ccc4c(c3)OCCO4)c12	i	0.19
Cc1ccc(-c2ccc(-n3nc(C)c(S(=O)(=O)NC(C)C)c3C)nn2)cc1	i	-0.48
CCC(=O)N1CCc2cc(N3CC(C(=O)NC(C)CC)CC3=O)ccc21 (stereo unspecified)	i	0.18
CC(C)n1cnc2nc(COc3ccc(Cl)cc3NC(=O)Nc3ccc(F)cc3F)cc(=O)n21	i	-0.74
CC(C)NC(=O)CN1C(=O)C(C)CSc2ccc(S(=O)(=O)N3CCCC3)cc21 (stereo unspecified)	i	0.12
Cc1nnc(N2CCCC(C(=O)NCc3ccccn3)C2)c2nn(-c3ccc(Cl)cc3)c(C)c12 (stereo unspecified)	i	-0.69
Cn1c(=O)c(C(=O)Nc2ccc(F)cc2)nc2ccccc21	i	-0.11

(cont.)
SMILES	Anaer choline gr	Anaer choline gr early
Cc1c(C(=O)NC2CCCCC2)sc2ncnc(N(C)C3CCCCC3)c12	i	-0.22
COc1ccc(OC)c(NC(=O)c2sc3ncnc(N4CCN(c5ccccn5)CC4)c3c2C)c1	i	0.33
CSc1nc(Nc2cccc(Cl)c2)c(C#N)c(-c2ccccc2)n1	i	-2.44
Cc1onc(-c2ccccc2)c1-c1ccc(S(N)(=O)=O)cc1	i	0.36&0.17&-0.46
O=C1C(c2ccc(F)cc2)N(C2CCCC2)C(=O)CN1C1CCCC1 (stereo unspecified)	i	0.27
Cc1nc2sccn2c(=O)c1NC(=O)c1ccc(F)c(F)c1	i	-0.61
CCn1ccc(C(=O)N2CCC(Nc3ncnc4c3CCC4)CC2)n1	i	0.6
CCOC(=O)CC(=O)CSc1nn2c(=O)c(C)nnc2s1	i	-0.78
COC(=O)c1ccc(Cl)cc1NC(=O)c1ccc2c(c1)CC(c1ccccc1)OC2=O (stereo unspecified)	i	-1.3
COc1ccc(OC)c(NC(=O)NCC(c2ccc(OC)c(OC)c2)c2c[nH]c3ccccc23)c1 (stereo unspecified)	i	1.75
COc1ccc(CNCc2nnc(-c3ccccc3)o2)cc1	i	0.56
CCOCc1nc(N2CCCC2)sc1C(=O)Nc1ccc(OC)cc1	i	1.2
COCCCn1c(SCc2ccc(F)cc2)nc2c(-c3ccccc3)cn(C)c2c1=O	i	-0.42
Cc1cc(C)n(-c2nc3cc(Cl)ccc3nc2NC2CCCCC2)n1	i	0.18
Cc1ccc(Cc2nc3ccccc3nc2SCC(=O)N2CCNC2=O)cc1	i	-0.18
Cc1ccc(-n2ccc(=O)c(-c3nc(-c4ccc(Br)cc4)no3)n2)cc1	i	-1.41
CCCc1cc(=O)oc2c(C)c3occc(=O)c3cc12	i	0.96
Cc1nnc(NC(=O)c2cc(=O)c3cc(Cl)c(C)cc3o2)s1	i	-0.37
O=C(Nc1ccc2c(c1)OCO2)c1nnc(C(=O)N2CCCC(C(=O)N3CCCCC3)C2)s1 (stereo unspecified)	i	1.06
O=C(Nc1cccc2nsnc12)c1cnccn1	i	0.53
CN(C1CCCCC1)S(=O)(=O)c1ccc2c(c1)CCN2	i	-0.1
Cc1nc2nc3c(cn2n1)C(=O)CCC3	i	0.54
COc1ccc2c(c1)c(-n1cccc1)c1n2CC(C)(C(=O)NC2CCCCC2)N(C(C)C)C1=O (stereo unspecified)	i	0.91
Cc1sc(-c2cc(C(F)(F)F)on2)cc1S(=O)(=O)NCCC1=CCCCC1	i	2.45
CCn1c(SCC(=O)Nc2nccs2)nnc1-c1cn(C)nc1-c1ccc(Cl)cc1	i	-0.17

More compounds.
SMILES	Anaer choline gr	Anaer choline gr early
COc1ccc(C2CC(=O)N(c3ccc(C)cc3C)C(=O)C2)cc1OC	i	0.83
O=C(C1CCCN(S(=O)(=O)c2cccc3cccnc23)C1)N1CCN(c2ccccc2F)CC1 (stereo unspecified)	i	0.32
COc1ccc(CN2CCN(c3ncnc4scc(-c5ccccc5)c34)CC2)cc1F	i	0.53
COc1ccccc1N1CCN(S(=O)(=O)c2ccc(CN3C(=O)c4cccnc4C3=O)cc2)CC1	i	0.83
CC1CCN(c2nc3c(S(=O)(=O)c4ccccc4)nnn3c3ccsc23)CC1	i	0.29
Cc1ccc(N(Cc2nc3nc(C)cc(=O)n3[nH]2)C(=O)c2ccc(F)cc2)cc1	i	0.2
COc1ccc(NC(=O)C2CCCN(S(=O)(=O)c3ccc4c(c3)NC(=O)CO4)C2)cc1OC (stereo unspecified)	i	-0.87
O=C(Cc1ccc(F)cc1)Nc1ccc(-c2cn3c(C(=O)N4CCCC4)csc3n2)cc1	i	0.75
C#Cc1cccc(Nc2ncnc3cc(OCCOC)c(OCCOC)cc23)c1	i	0.2&0.62
COC(=O)C1=CN(c2ccc3c(c2)OCCO3)c2cc(Br)ccc2S1(=O)=O	i	0.06
O=C(NC1CCCCC1)c1cnn(-c2ccc(Cl)cc2)c1	i	-0.23
O=C(NC1CC1)c1ccc2c(c1)CCN2C(=O)C1CCC1	i	-0.26
CCn1nc(C)c2[nH]c(=S)n(Cc3ccc(Cl)cc3)c(=O)c21	i	0.29

Some of the entries so far, with two lines to a compound.
Every second line gives: Anaer choline gr, Anaer choline gr early
> COc1ccc(CN2CCN(c3ncnc4scc(-c5ccccc5)c34)CC2)cc1F
 : i, 0.53
> COc1ccccc1N1CCN(S(=O)(=O)c2ccc(CN3C(=O)c4cccnc4C3=O)cc2)CC1
 : i, 0.83
> CC1CCN(c2nc3c(S(=O)(=O)c4ccccc4)nnn3c3ccsc23)CC1
 : i, 0.29
> Cc1ccc(N(Cc2nc3nc(C)cc(=O)n3[nH]2)C(=O)c2ccc(F)cc2)cc1
 : i, 0.2
> COc1ccc(NC(=O)C2CCCN(S(=O)(=O)c3ccc4c(c3)NC(=O)CO4)C2)cc1OC (stereo unspecified)
 : i, -0.87
> O=C(Cc1ccc(F)cc1)Nc1ccc(-c2cn3c(C(=O)N4CCCC4)csc3n2)cc1
 : i, 0.75
> C#Cc1cccc(Nc2ncnc3cc(OCCOC)c(OCCOC)cc23)c1
 : i, 0.2&0.62

Arranged by length of the SMILES (descending): part of the list above.
SMILES	Anaer choline gr	Anaer choline gr early
COC(=O)C1=CN(c2ccc3c(c2)OCCO3)c2cc(Br)ccc2S1(=O)=O	i	0.06
CCn1nc(C)c2[nH]c(=S)n(Cc3ccc(Cl)cc3)c(=O)c21	i	0.29
C#Cc1cccc(Nc2ncnc3cc(OCCOC)c(OCCOC)cc23)c1	i	0.2&0.62
O=C(NC1CC1)c1ccc2c(c1)CCN2C(=O)C1CCC1	i	-0.26
O=C(NC1CCCCC1)c1cnn(-c2ccc(Cl)cc2)c1	i	-0.23
